Menin MLL FP FL: displaces fluorescein MLL peptide from human menin; FP activity change, % at 61.4 µM; 290,000 tested, under 10 active; Fluorescence polarization, fluorescein-MLL peptide displacement from menin; AID 1766; inconclusive = falling polarisation curve, or a change in total fluorescence; inactive = total fluorescence flat and polarisation flat or rising; no compound was filed as active; the % refers to the polarisation; negative = inhibition;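 further: % of control where 0% means no effect; inhibitors lower the polarisation; unlabelled MLL peptide was the positive control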
gsp ag: agonists of gsp mutant (McCune-Albright syndrome). gsp mutant cells, cAMP HTRF, 30 min; control for the full effect not named in the record. Potency, µM (top dose mostly 76.9 µM), for the others: top-dose activation (cAMP increase), most hits filed as activators. 340,000 compounds, 0.13% hits; active = well fitted activation curve with a large enough effect; inconclusive = small, poorly fitted or top-dose-only effect, or another doubt; inactive = no such curve, though single readings can be large or run the other way; cell line not stated here;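 further: phosphodiesterase inhibitor Ro 20-1724 added with compounds to block cAMP breakdown; potency means the concentration at half of the fitted maximal effect; nearly all actives have a fitted effect of over 60% in size; about a fifth of the inactives were tested at one dose only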
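Cells in DMEM/10% FBS with G418 were pretreated with compounds in DMSO plus […] (300 uM stock) for 30 min at 37C. cAMP was measured by HTRF (cAMP-d2 plus anti-cAMP antibody-K) after 30 min at room temperature.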
ClpP mod: qHTS Assay for Activators of ClpP; 340,000 compounds, 1.9% hits; AID 651965, 2013; Potency, µM (top dose mostly 57.5 µM), for the others: at the highest dose activity change, negative = active; purified B. subtilis ClpP, FRET peptide cleavage, 20 min; ATP-dependent Clp protease proteolytic subunit (Bacillus subtilis (strain 168)), P80244; active = well fitted falling curve with a large enough effect; inconclusive = small, poorly fitted or top-dose-only effect; inactive = no such curve, though single readings can be large or run the other way; further: potency means the concentration at half of the fitted maximal effect; the source files actives as falling curves though it sought activators and does not explain the sign; nearly all actives have a fitted effect of over 65% in size; many hits overshoot -100%
Target sequence (P80244 whole entry, looked up): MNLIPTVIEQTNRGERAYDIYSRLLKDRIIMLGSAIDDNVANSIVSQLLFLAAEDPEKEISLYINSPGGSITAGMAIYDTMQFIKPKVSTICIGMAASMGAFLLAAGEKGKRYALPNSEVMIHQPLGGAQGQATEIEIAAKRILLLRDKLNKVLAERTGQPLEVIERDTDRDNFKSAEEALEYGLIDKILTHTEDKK
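FRET quenching reversal measured ClpP activation: 10 microg/mL B. subtilis ClpP at pH 8 with the FRET-FV decapeptide, read at 430 nm after 320 nm excitation. The 20-min minus 0-min signal was scaled between DMSO/no-enzyme wells and ADEP (5.8 microM final).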
gsp antag: antagonists of gsp mutant (McCune-Albright syndrome). gsp-mutant cells, cAMP HTRF, 30 min; control for the full effect not named in the record. Potency, µM (highest dose often 76.9 µM), inactives show top-dose activity change, negative = inhibition, most hits filed as inhibitors. 340,000 compounds, 0.4% hits; active = falling curve of any shape with a large fitted effect; inconclusive = falling curve, mostly with a smaller effect; inactive = flat or rising curve; cell line not stated here;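 further: intracellular cAMP measured with PDE inhibitor Ro 20-1724 present during compound exposure; potency means the concentration at half of the fitted maximal effect; on the % scale 0 is the no-effect control and ±100 the full control effect; nearly all actives have a fitted effect of over 65% in size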
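HTRF cAMP measurement after 30 min RT detection following 30 min, 37C compound treatment alongside […] (added as 300 uM solution) in G418-selected cells seeded at 2000/well and grown 16–24 h.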
TRPML1 inh: inhibitors of human TRPML1 channel; TRPML1-inducible cells, Ca2+ dye fluorescence, FDSS; hits give low values; inhibition of EC80 agonist-evoked calcium signal; activity change, negative = inhibition, % (test concentration not listed); 390,000 compounds, 0.02% hits; in the data active means activity change below about -50%; inconclusive means about -30% to -50%; inactive means above about -30%;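 further: stimulus is agonist 54-4 at its EC80 concentration; on the % scale 0 is the no-effect control and ±100 the full control effect; compound concentration not given in the record; the text of the record puts the active cut at -80%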
Target sequence (Q9GZU1 whole entry, looked up): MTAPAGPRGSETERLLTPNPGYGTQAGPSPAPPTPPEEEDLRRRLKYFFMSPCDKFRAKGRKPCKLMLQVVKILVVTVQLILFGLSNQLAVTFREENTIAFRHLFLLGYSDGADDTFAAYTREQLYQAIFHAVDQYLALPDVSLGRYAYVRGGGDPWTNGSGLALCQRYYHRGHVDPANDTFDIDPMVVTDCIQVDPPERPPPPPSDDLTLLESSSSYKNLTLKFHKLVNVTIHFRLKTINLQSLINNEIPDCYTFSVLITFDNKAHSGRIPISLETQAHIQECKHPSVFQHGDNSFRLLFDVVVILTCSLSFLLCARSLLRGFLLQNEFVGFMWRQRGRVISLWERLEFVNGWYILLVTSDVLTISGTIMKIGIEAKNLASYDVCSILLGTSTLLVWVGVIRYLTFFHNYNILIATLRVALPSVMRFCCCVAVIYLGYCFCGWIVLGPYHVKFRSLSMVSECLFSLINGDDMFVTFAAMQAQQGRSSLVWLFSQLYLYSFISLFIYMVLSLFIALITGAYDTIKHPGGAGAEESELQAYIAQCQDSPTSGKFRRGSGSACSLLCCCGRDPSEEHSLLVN
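TRPML1-DL cells, Tet-induced overnight (~16 h, 37 °C) at 1,500 cells/well, were loaded with Ca8 no-wash dye plus quencher for 45-90 min at room temperature. Compounds were pinned during FDSS kinetic reading; agonist 54-4 at EC80 (4 uM final) then added.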
TRPML1 agonist: activates the human TRPML1 channel. Q9GZU1. 410,000 compounds, 0.12% hits. TRPML1-expressing cells, Ca2+ dye fluorescence, FDSS; host cell line not named in the record; reference of the full effect not given here. activation, % (concentration not given with the values). AID 624414; in the data active = activation above about 50%; inconclusive = about 30% to 50%; inactive = below about 30%; further: 0% is about no effect; the text of the record puts the active cut at 80%
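Agonist activity was taken from a 110 s kinetic Ca2+ dye read on the FDSS after pinning compounds onto TRPML1-DL cells. The cells were seeded at 1,500/well with Tet inducer, incubated about 16 h, then dye-loaded at room temperature.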
Starred values were filed as active, the others as inactive; ? = inconclusive; / = no result given; & = joins results of further samples; [ ] = another dose, or the depositor's remark.

| smiles | Menin MLL FP FL | gsp ag | ClpP mod | gsp antag | TRPML1 inh | TRPML1 agonist |
| --- | --- | --- | --- | --- | --- | --- |
| CC(=O)Nc1cccc(NC(=O)CSc2nc(C)c(C)c(C)c2C#N)c1 | 5.4 | -6.0% | -1.5% | -2.5% | 7.3 | 0.0 |
| C[n+]1ccccc1/C=C/c1cc(Br)ccc1O | ? | 9.7% | -5.9% | -0.9% | / | / |
| Cn1c(CC(=O)Nc2cccc(Cl)c2Cl)nnc1SCC(=O)NC1=NCCS1 | -1.2 | -6.1%[15.4 µM] | / | 16.2% | 4.4 | -0.3 |
| CCc1ccccc1NC(=O)C1CCN(C(=O)N2CCOc3ccccc32)CC1 | -1.0 | -68.1%[inhibitor] | -2.0% | -2.9% | 2.3 | -0.1 |
| Cc1ccc(C(=O)NC(=S)Nc2ccccc2N2CCCC2)cc1[N+](=O)[O-] | 10.4 | 20.3% | -2.9% | 5.1% | 16.3 | -0.1 |
| O=C(CN1C(=O)C2C3C=CC(C3)C2C1=O)Nc1cccc(S(=O)(=O)N2CCCC2)c1 (stereo not drawn) | 0.5 | 0.5% | -2.5% | 1.4% | 17.9 | 0.6 |
| CC(C)c1ccccc1NC(=O)CSc1nnc(COc2ccccc2Cl)o1 | / | / | -2.7% | / | 11.4 | 2.4 |
| OC(CN1CCOCC1)CN1CCOCC1 | 0.9 | -14.9% | -8.0%&-1.1% | 3.9% | 12.3 | -0.4&0.0 |
| O=S(=O)(c1ccccc1)N1CCN(c2ccccc2)CC1 | 3.6 | -45.8%[inhibitor] | 1.0%&-4.0% | -7.8% | / | -0.7 |
| CC(C)CN(C(=O)COC(=O)CCCc1nc2ccccc2s1)c1c(N)n(Cc2ccccc2)c(=O)[nH]c1=O | / | -33.9%[inhibitor] | 1.5% | 3.1% | -7.9 | -0.1 |
| CCCCC1(c2ccc(F)cc2)NC(=O)N(CC(=O)N2CCN(C(=O)c3ccco3)CC2)C1=O (stereo not drawn) | -3.6 | -25.9% | 1.3% | 4.4% | -0.9 | 0.1 |
| C/C(Cc1ccccc1)=N\NC(=O)CNC(=O)c1ccccc1F | -7.6 | ? | -2.3% | 17.5% | -3.2 | -0.7 |
| O=[N+]([O-])c1ccccc1N/N=C/c1c[nH]c2ccccc12 | 2.9 | -42.6%[inhibitor] | 2.9% | -12.1% | 6.4 | 0.9 |
| Clc1ccc(C[n+]2cc(-c3ccccc3)n3c2CCC3)cc1Cl | -2.2 | 5.6% | -1.9% | 8.5% | 28.3 | -0.1 |
| Cc1cccc(OCC(=O)NCC(=O)N/N=C/c2cc(Br)cc(Br)c2O)c1 | 16.6 | 13.7%[15.4 µM] | / | -1.8% | -16.6 | 1.4 |
| O=C1c2oc3ccc(F)cc3c(=O)c2C(c2cccc(O)c2)N1CCCN1CCOCC1 (stereo not drawn) | 3.7 | 0.4% | -2.3% | -2.6% | -2.7 | 0.9 |
| CCN(CC)C(=O)c1cn(CCC#N)nc1-c1ccc2c(c1)OCCO2 | 0.9 | ? | / | -5.3% | 5.9 | 1.1 |
| COc1ccc(-n2nc(C(=O)NCC(=O)N3CCOCC3)c3ccccc3c2=O)cc1Cl | -2.4 | 1.1% | / | 2.9% | -0.1 | -0.3 |
| COc1cccc(C(=O)Nc2sc3c(c2C#N)CCN(C(C)=O)C3)c1 | ? | -59.7%[inhibitor] | -3.2% | 8.0% | 14.3 | 1.1 |
| COc1cccc(N2CCN(c3ccc4nnc(CCC(=O)N5CCN(C)CC5)n4n3)CC2)c1 | / | ? | 0.4% | 4.4% | -1.9 | 0.5 |
| O=C(N/N=C/c1c[nH]c2ccccc12)c1ccc(O)c(O)c1 | -13.2 | -3.4%[15.4 µM] | 0.1% | 3.0% | -2.9 | -1.4 |
| Cc1ccc(/C=C/c2onc(C)c2S(=O)(=O)N2CCC(C(=O)N3CCN(c4cccc(C)c4)C(C)C3)CC2)cc1 (stereo not drawn) | / | / | -2.3% | / | 5.2 | 0.2 |
| CCOCCCNC(=O)C(NC(=O)c1ccc(=O)[nH]c1)c1ccc(C)cc1 (stereo not drawn) | 1.6 | 17.2% | 0.7% | 11.7% | -6.4 | -1.1 |
| O=C(CSCC(=O)N1CCCCC1)Nc1nc(-c2ccccc2)c(-c2ccccc2)s1 | 3.0 | -2.5% | -13.3% | -20.8% | 30.0 | 0.7 |
| CCOC(=O)c1ccc(N2C(=O)c3n[nH]c(-c4cccs4)c3C2c2cccc(OC)c2)cc1 (stereo not drawn) | / | / | -9.3% | / | -2.9 | 1.8 |
| Cc1cc(NC(=O)CS(=O)(=O)c2ccc(Cl)cc2)no1 | / | 8.9% | -0.5% | 8.1% | -12.6 | -0.3 |
| NC(=O)c1cnn(-c2ccc3ccccc3c2)c1N | 1.1 | 18.4%[15.4 µM] | -13.1% | -5.4% | -10.4 | -0.2 |
| Oc1ccc(/C=N/Nc2cccc(Cl)n2)c(O)c1 | -1.0 | -49.8%[inhibitor] | -0.3% | -4.8% | 1.0 | -1.5 |
| c1coc(C2=Nc3cccc4cccc(c34)N2)c1 | ? | ? | / | -6.5% | 1.2 | -0.2 |
| CCOC(=O)Cn1c(=O)n(-c2cccc(Cl)c2)c2nc(-c3ccccc3Cl)nc(C(N)=O)c21 | / | / | -19.9% | / | -7.2 | 2.3 |
| CCc1ccc(NC(=O)c2cnn(-c3ccccc3)c2C2CCNCC2)cc1 | 3.2 | 27.9% | -0.4% | 1.9% | -1.6 | 1.3 |
| COCCNC(=O)/C(C#N)=C/c1c(N2CCN(C)CC2)nc2c(C)cccn2c1=O | -1.0 | 22.8%[15.4 µM] | -24.6% | 19.1% | -13.5 | -1.6 |
| CC1CCN(Cc2ccc(NC(=O)CC3Oc4ccccc4NC3=O)cc2)CC1 (stereo not drawn) | 0.8 | -26.9% | 0.2% | 5.5% | -9.7 | 0.4 |
| O=C(COC(=O)c1nc(Cl)ccc1Cl)NCCc1ccccc1 | / | -33.9%[15.4 µM] | / | 4.5% | -6.8 | 1.7 |
| S=C(NCc1ccccc1)Nc1ccc(Cl)cc1 | 0.2 | -10.5% | / | 0.9% | 36.8 | 0.5 |
| N#Cc1ccccc1CCN1C(=O)c2ccccc2C1=O | 3.9 | -45.5%[inhibitor] | / | 3.6% | 8.5 | 0.7 |
| Fc1ccc(CO/N=C2\CCCc3nonc32)cc1 | 5.1 | 6.8%[15.4 µM] | -2.1% | 6.7% | 0.8 | -0.6 |
| CN1C(=O)C2(c3ccccc31)N(C)CC(c1ccccc1)C21SC(=S)N(Cc2ccco2)C1=O (stereo not drawn) | -1.6 | ? | -3.5% | -9.7% | -10.6 | -0.4 |
| N#C/C(=C/c1ccccc1[N+](=O)[O-])C(=O)NCc1ccco1 | 9.6 | -1.7%[15.4 µM] | -1.2% | 3.2% | 2.4 | 0.8 |
| O=C(Nc1nc2c(c(=O)[nH]1)CCCC2)C1CC1 | -1.3 | 0.0% | 0.7% | -2.5% | -2.4 | -0.8 |
| COc1cccc(N2CCN(C(=S)Nc3ccc(C)cc3C)CC2)c1 | 4.5 | -1.3% | 1.4% | 9.7% | -9.4 | -0.3 |
| O=C(Nc1ccccc1F)Nc1cc(Cl)ccc1-n1cncn1 | 4.5 | 7.6%[15.4 µM] | / | -5.0% | 10.0 | -0.1 |
| COc1cccc(Sc2cc(N3CCOCC3)nc(-c3ccccc3)n2)c1 | 2.2 | 7.4% | -2.9% | -32.3% | -3.4 | 1.1 |
| Cc1cc(/C=C2\SC(=O)N(CC(=O)Nc3ccccc3F)C2=O)c(C)n1C | 15.9 | -13.3%[15.4 µM] | 1.0% | -2.1% | -10.3 | 0.1 |
| CSc1nnc(-c2ccccc2)c(-c2ccccc2)n1 | 2.3 | ? | 0.0% | -20.4% | / | / |
| O=C(CNC(=O)c1ccccc1)N/N=C/c1cn[nH]c1-c1ccccc1 | ? | ? | -0.1% | 11.7% | 12.4 | 1.0 |
| CCOC(=O)C1Nc2ccc(C)cc2C2C=CCC12 (stereo not drawn) | / | 0.4% | -3.9% | -7.4% | -17.4 | 0.1 |
| CCC(=O)Nc1sc2c(c1C#N)CCC2 | 0.6 | -10.6%[15.4 µM] | / | 2.6% | 10.7 | -0.5 |
| Cc1nnsc1S(=O)(=O)c1ccccc1 | -1.0 | 8.8% | / | 3.4% | 0.5 | -0.5 |
| CCOc1ccccc1NC(=O)c1cc2ccccc2oc1=O | -0.1 | -8.7%[15.4 µM] | -1.2% | 0.8% | 24.5 | 0.7 |
| CCc1ccccc1NC(=O)Cn1ncc2c(C)n(Cc3ccccc3F)c(C)c2c1=O | / | / | -1.7% | / | -20.1 | 0.1 |
| O=C(COc1ccc(C(=O)NCCN2CCOCC2)cc1)Nc1cccc(C(F)(F)F)c1 | / | 3.8%[15.4 µM] | -7.7% | 5.1% | -4.6 | 1.1 |
| CC(C)C(NS(=O)(=O)c1ccccc1)C(=O)OCC(=O)NNC(=O)c1ccccc1 (stereo not drawn) | / | -4.9%[15.4 µM] | 0.7% | -2.4% | -3.8 | 0.1 |
| CC(=O)c1noc(C)c1C(=O)Nc1nccs1 | 2.0 | 9.0% | -6.8% | -2.5% | 6.8 | -1.3 |
| O=C(O)c1ccc2nc(-c3cc4cccc(O)c4oc3=O)[nH]c2c1 | / | / | -8.4% | / | -1.1 | 0.8 |
| CCCCOc1ccc(C2c3c(oc4ccccc4c3=O)C(=O)N2c2nc(C)c(C(=O)OCC)s2)cc1OC (stereo not drawn) | / | / | 1.3% | / | 18.3 | 0.7 |
| COc1ccc(C#Cc2ccc3c(c2)c(=O)c2ccccc2n3C)cc1 | -4.9 | 8.1% | 3.9% | -9.3% | 11.0 | 0.6 |
| COc1ccccc1Cn1c(-c2ccccc2OC)nc2ccccc21 | 7.2 | -3.9% | -5.6% | ? | 6.1 | 2.2 |
| CCCCCSc1ncccc1C(=O)O | 0.6 | -14.2%[15.4 µM] | -1.5% | -11.3% | 5.7 | -0.5 |
| O=C(COc1ccc(-n2cnnn2)cc1)Nc1ccc(F)c(Cl)c1 | / | 9.9% | / | -4.6% | 25.8 | 0.1 |

(further entries)
| smiles | Menin MLL FP FL | gsp ag | ClpP mod | gsp antag | TRPML1 inh | TRPML1 agonist |
| --- | --- | --- | --- | --- | --- | --- |
| COc1cccc(CN2CCN(CCCc3ccccc3)C(CCO)C2)c1O (stereo not drawn) | 0.2 | 32.7% | 0.9% | 2.1% | -6.1 | -0.1 |
| Cn1c(=O)c(=O)n(C)c2cc(N3CCCC3)c(NS(=O)(=O)c3ccc(Cl)cc3)cc21 | -0.5 | -41.2%[inhibitor] | 2.0% | -5.1% | 16.3 | -0.2 |
| O=C(O)C1C2CC(C(Br)C2Br)C1C(=O)O (stereo not drawn) | / | 1.6% | -2.0% | 7.8% | 11.3 | 0.3 |
| CCCCOC(=O)c1ccc(NC(=O)CSc2nc3c(c(=O)[nH]2)CCC3)cc1 | / | / | 0.5% | / | 17.3 | 3.9 |

High-throughput results as filed in PubChem.
